Screening results: PubChem BioAssay, ICCB-Longwood Screening Facility, Harvard Medical School
MgrA-DNA mod: S. aureus MgrA-DNA binding modulation; fluorescence polarization; inhibition, %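 (about 10 µg/mL by stock and volumes)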; 84,000 tested, 0.13% active;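 active means above 50% in either of two replicates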;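 further: 0% = protein plus DNA without compound and 100% = DNA alone without protein; higher means less MgrA bound to DNA so lower polarization; one replicate is shown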
S aureus helic: blocks Staphylococcus aureus DNA helicase | inhibition, %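 (tested at about 80 µM)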 | purified S. aureus helicase, fluorescence unwinding assay; about half of the hits fall short of the stated cut | AID 485395 | 120,000 tested, 0.05% active;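 active means both duplicates at 50% or more, or one of them with a favoured structure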;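 further: 0% = mean of negative control wells and 100% = mean of positive control wells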
Numbers without * were called inactive; x = not tested or not shown; & = joins results of further samples. These rows are one share of the data; rates above refer to the full screens.

SMILES | MgrA-DNA mod | S aureus helic
O=C(COC(=O)C1CC(=O)N(Cc2ccccc2)C1)Nc1ccc2c(c1)OCO2 (stereo not given) | x | -12
O=C1CCCC2=C1C(c1ccc(OCc3ccc(C(=O)O)cc3)cc1)C1=C(CCCC1=O)O2 | x | 6
Cc1cc(=O)c2cc(Cl)ccc2s1 | x | -18
c1ccc(-c2nc3c([nH]2)CCc2nonc2-3)cc1 | x | -8
Cc1nc2c(cc(OCc3c(C)noc3C)c3ccsc32)s1 | x | -15
CC(C)C(NS(=O)(=O)c1cccs1)C(=O)NCc1ccccc1F (stereo not given) | x | 5
CCN(Cc1ccccc1)C(=O)C1CCN(Cc2ccc(SC)cc2)CC1 | -5.7 | 2
CC1=C(C(=O)Nc2cc(Cl)ccc2C(=O)NCc2ccc(OC(C)C)cc2)SCCO1 | 1.6 | 11
CC1(N)CCS(=O)(=O)C1 (stereo not given) | 0.8 | 6
CCCc1cc(=O)c2ccc(OC/C(C)=N/O)cc2o1 | -1.6 | x
COc1ccc(OCC(O)CNCCNc2ncccc2C(F)(F)F)cc1 (stereo not given) | -0.3 | x
CN(C)c1cc(NC(=O)Nc2ccccc2)c2ccccc2n1 | x | 31
CNC(=O)Nc1ccc(Cl)cc1 | x | -1
Cc1noc(C)c1CSc1ccccc1C(=O)NC(C)c1ccc(-n2ccnc2)cc1 (stereo not given) | x | 1
Nn1c(Nc2ccccc2)nc2sc3c(c2c1=O)CCCC3 | 1.0 | 16
COc1ccccc1CNC(=O)CSc1ccccc1 | -0.1 | -24
CN1CCN(C(=O)c2ccc(-c3ccccc3)cc2)CC1 | 0.3 | 12
O=C(c1cccs1)N1CCN(c2ccccc2)CC1 | 2.0 | 5
CC(OC(=O)c1ccc(NC(=O)Cc2ccccc2)cc1)C(=O)c1ccccc1 (stereo not given) | -0.7 | 17
Cc1ccc(OCCSc2nc3ccccc3n2CC(=O)O)cc1C | -1.2 | x

Looked up one by one from above, 3 records:
SMILES | MgrA-DNA mod | S aureus helic
Cc1noc(C)c1CSc1ccccc1C(=O)NC(C)c1ccc(-n2ccnc2)cc1 (stereo not given) | x | 1
Cc1ccc(OCCSc2nc3ccccc3n2CC(=O)O)cc1C | -1.2 | x
Nn1c(Nc2ccccc2)nc2sc3c(c2c1=O)CCCC3 | 1.0 | 16

Later entries.
SMILES | MgrA-DNA mod | S aureus helic
O=C(Nc1ccc(Cl)cc1)N1CCC(O)CC1 | x | 17
CCSc1nnc(-c2ccc(Cl)cc2)o1 | 1.2 | 1
Cc1ccccc1C1CC(=O)NC(SCC(=O)Nc2ccccc2)=C1C#N (stereo not given) | x | -5
Cn1ncc2c(O/N=C/c3ccc(Cl)cc3Cl)ncnc21 | x | -12
CCOc1ccc(-n2cc(C(=O)Nc3ccc(N4CCOCC4)cc3)nn2)cc1 | x | -10
NC(=O)C1CCN(C(=O)COC(=O)C23CC4CC(CC(C4)C2)C3)CC1 | x | -11
C=CCNC(=O)c1cc2n(n1)C(C(F)(F)F)CC(c1ccco1)N2 (stereo not given) | -3.4 | 13
Cc1cc(=O)[nH]c(SCC(=O)OCc2ccccc2)c1C#N | 3.2 | 2
CC1=C(C(=O)OC2CCCC2)C(c2ccccc2)NC(=O)N1 (stereo not given) | 0.3 | x
CCc1oc(C(=O)O)cc1COC | 7.8 | 20
COC(=O)c1c(C)c[nH]c1C | x | -22
CC(C)NCC(O)Cn1c2c(c3ccccc31)CCCC2=O (stereo not given) | x | 10
CN(C)Cc1nc2ccccc2c(=O)[nH]1 | x | -14
COc1ccc2oc(=O)c(-c3nnc(NCc4ccc5c(c4)OCO5)s3)cc2c1 | -0.6 | -6
Cc1c(Cl)cccc1NC(=S)N(CCCN1CCCC(C)C1)Cc1ccco1 (stereo not given) | x | -29
COC(=O)C1=C(Nc2ccc(F)cc2F)CSC1 | 1.2 | x
COC(=O)c1cccc(Nc2cc(C)nc3ccccc23)c1 | x | 22
Cc1cccc(-c2nnc(C(C)Oc3cc(Cl)ccc3Cl)o2)c1 (stereo not given) | x | 5
O=C(c1ccc(Br)cc1)c1cc2cc(Br)cc(Br)c2o1 | 1.1 | x
O=C(c1ccccc1)N(C(=O)c1ccccc1)C(=O)c1ccccc1 | 0.4 | x

Laid out differently: entries from further up.
MgrA-DNA mod | S aureus helic | smiles
-0.6 | -6 | COc1ccc2oc(=O)c(-c3nnc(NCc4ccc5c(c4)OCO5)s3)cc2c1
x | -29 | Cc1c(Cl)cccc1NC(=S)N(CCCN1CCCC(C)C1)Cc1ccco1 (stereo not given)
1.2 | x | COC(=O)C1=C(Nc2ccc(F)cc2F)CSC1

Later entries
SMILES | MgrA-DNA mod | S aureus helic
CC(NC(=O)Nc1ccc2c(c1)OCO2)c1ccncc1 (stereo not given) | -0.2 | 11
CCn1nc(C)cc1-c1nnc(SC)n1-c1cccc(C(F)(F)F)c1 | -0.6 | x
Cc1ccc(S(=O)(=O)N2CCN(C(=O)CCC(=O)NC3CCCc4ccccc43)CC2)cc1 (stereo not given) | x | -12
Cc1cc(C(=O)NN)n(C(C)(C)C)n1 | -1.0 | x
CCCCSc1nnc(CNC(=O)c2ccc(OC)cc2)n1CCCC | x | 15
Cc1ccc2c(c1)c1c3n2CCN(C(=O)c2c(-c4ccccc4Cl)noc2C)C3CCC1 (stereo not given) | 0.9 | 3
Cc1ccc2nc(Sc3cccc(Cl)c3)[nH]c2c1 | -0.2 | 8
S=C(NCc1ccccc1)N/N=C/c1ccco1 | 2.6 | -13
Cc1c(C(=O)N(C)C)sc2c1c(=O)n(-c1ccccc1C(F)(F)F)c(=O)n2CC(N)=O | 0.8 | 1
Nc1ncc(-c2nnnn2-c2ccccc2)c(-c2ccccc2)n1 | x | 9
Cc1cc(=S)n(-c2ccccc2)n1C | -2.5 | 16
O=C(Nc1ccc(N2CCCCCC2)cc1)c1ccncc1 | x | -18
O=C1C(O)=C(O)C(=O)C(O)=C1O | 2.5&3.0 | x
O=C1CCCCC1Sc1nnc(-c2ccco2)n1-c1ccccc1 (stereo not given) | x | 4
COC(=S)Nc1ccc(N2CC(C)OC(C)C2)cc1 (stereo not given) | -3.8 | x
CN(Cc1ccco1)C(=O)CCS(=O)(=O)c1ccc2c(c1)n(C)c(=O)c(=O)n2C | x | 2
O=c1oc2ccccc2c2c1nc(C(F)(F)F)n2-c1ccccc1 | 1.1 | 2
CCCc1cc(=O)n2nc(N3CCC(C(=O)Nc4ccc(CC)cc4)CC3)sc2n1 | x | -20
FC(F)(F)c1ccnc(NCCNC(=S)Nc2ccc3c(c2)OCCO3)n1 | x | -11
COc1ccc(COCC(O)CS(=O)(=O)c2ccc(C)cc2)cc1 (stereo not given) | -2.0 | x

Complete entries as entered above. Order of values: MgrA-DNA mod | S aureus helic
Shown for O=C1C(O)=C(O)C(=O)C(O)=C1O → 2.5&3.0 | x
Shown for CC(NC(=O)Nc1ccc2c(c1)OCO2)c1ccncc1 (stereo not given) → -0.2 | 11
Shown for CCn1nc(C)cc1-c1nnc(SC)n1-c1cccc(C(F)(F)F)c1 → -0.6 | x

(continued)
SMILES | MgrA-DNA mod | S aureus helic
COc1ccc(C(C)(C)C)cc1NC(=O)COC(=O)C1CC(=O)N(Cc2ccco2)C1 (stereo not given) | x | -5
O=C(NN1C(=O)CCC1=O)c1cccc(Br)c1 | x | -17
Cc1ccc(S(=O)(=O)/N=C2\C=C(Sc3ncn[nH]3)C(=O)c3ccccc32)cc1 | 44 | 17
Clc1cccc(Nc2nc3ccccc3s2)c1 | -1.6 | x
O=C(CN1C(=O)S/C(=C\c2ccc(Cl)cc2)C1=O)Nc1cccnc1 | 1.2 | 10
O=C(COc1ccc(Cl)cc1)Nc1c(-c2ccccc2)nc2sccn12 | x | -4
O=C(CNC(=O)Nc1ccc(Cl)c(Cl)c1)NC1CC1 | x | 13
N/C(Cc1nc(-c2cccc([N+](=O)[O-])c2)cs1)=N\O | 1.7 | x
CS(=O)(=O)N(Cc1cc2ccccc2[nH]c1=O)c1ccccc1 | -1.2 | -6
CC12CCC(C(=O)N3CCCc4ccccc43)(CC1=O)C2(C)C (stereo not given) | x | -20
CC1CC(=O)c2cnc(N3CCOCC3)nc2C1 (stereo not given) | -0.2 | 10
O=C(O)CSc1ccc(Cl)cc1 | -1.4 | x
O=c1ccc(-c2ccc(S(=O)(=O)NCCSCc3ccco3)s2)n[nH]1 | x | 10
Cc1cc(-c2ccc(Cl)cc2)c2c(=O)[nH][nH]c2n1 | x | -4
CCOC(=O)Nc1cccc2nsnc12 | -1.4 | 11
Cc1ccccc1Nc1nnc(SCC(=O)NC2CCC(C)CC2)s1 (stereo not given) | x | -15
O=C(NC1CCCC1)c1ccc(CS(=O)(=O)c2c(Cl)cccc2Cl)o1 | -0.1 | 12
Cn1cc(S(=O)(=O)NCCc2ccccc2)c(=O)n(C)c1=O | x | 5
COc1ccc(/C=N/n2cnc3c([nH]c4ccc(F)cc43)c2=O)cc1 | 4.0 | 9
Cn1ccsc1=NC(=O)c1cccc(S(=O)(=O)N2CCCCC2)c1 | x | 4
CC(CCC(=O)O)[C@H]1CCC2C3CC[C@@H]4C[C@H](O)CC[C@]4(C)C3CC[C@@]21C (stereo not given in full) | -0.4 | x
O=C(NCCc1ccc(Cl)cc1)c1ccc2c(=O)n(-c3ccccc3)c(=O)[nH]c2c1 | 3.1 | 14
Cc1nc2ccccn2c1-c1ccnc(SCC(=O)Nc2ccc(C(C)C)cc2)n1 | -3.3 | x
CCOC(=O)c1c(C)cc(C)[nH]c1=O | 0.1&-1.2 | 18
CCCn1c(SCC(=O)c2ccccc2)nnc1C(C)C | 4.3 | -13
O=c1[nH][nH]c(=O)n1/N=C/C=C\c1ccccc1 | 0.8 | x
Cc1oc2nc[nH]c(=O)c2c1C(=O)OC(C)C(=O)N1CCOCC1 (stereo not given) | x | 0
Cc1ccc(/C=N/N2CCCCC2)o1 | x | 9
C=CCn1c(=N)n(CC(O)COc2cccc(C)c2)c2ccccc21 (stereo not given) | x | 20
Cc1ccccc1N(C)S(=O)(=O)c1ccc2[nH]cc(C(=O)NCCC(C)C)c(=O)c2c1 | -1.4 | 5
CC(=O)N[C@H]1[C@@H](OCc2ccccc2)O[C@@H]2COC(c3ccccc3)O[C@H]2[C@@H]1O (stereo not given in full) | -2.6 | x
Nc1nc2ccc(C(=O)OC3CCCCC3)cc2s1 | 3.5 | 10
Cc1ccc(C)n1-c1oc(-c2ccco2)c(-c2ccco2)c1C#N | 5.2 | 5
CC1CC(C)CN(CCCNC(=O)Cn2c3ccccc3c3cn[nH]c(=O)c32)C1 (stereo not given) | -2.0 | 2
CCOc1ccc(OCCSc2nnnn2-c2ccccc2)cc1 | 0.3 | 4
COC(=O)C(Cc1ccccc1)NC(=O)c1cc(-c2ccc3c(c2)OCCO3)oc1C (stereo not given) | -3.1 | 11
CSc1n[nH]c(NS(=O)(=O)c2ccccc2Cl)c1-c1ccccn1 | -0.5 | x
O=C(/C=C/c1ccco1)Nc1ccc(S(=O)(=O)N2CCCCC2)cc1 | 14 | 8
Cc1ccc(C)c(-c2nnc(NC(=O)c3ccc(S(=O)(=O)N4CCc5ccccc54)cc3)o2)c1 | x | 21
CC(C)(C)C(=O)NC1CCN(S(=O)(=O)c2ccccc2C(=O)O)CC1 | -4.6 | 17
COc1ccc(S(=O)(=O)N(Cc2ccccc2)Cc2nc3ccccc3c(=O)[nH]2)cc1 | -4.1 | 4
CCC(=O)Nc1ncc2c(n1)CC(c1ccc(N(C)C)cc1)CC2=O (stereo not given) | -0.1 | -2
CC(C)OC(=O)c1sc2nc3c(cc2c1N)C(=O)CCC3 | -0.1 | 7
Cc1[nH]nc2c1C(c1ccc3ccccc3c1)CC(=O)N2 (stereo not given) | -1.0 | 7
Cn1ccnc1SCC(=O)Nc1ccc(S(N)(=O)=O)cc1 | -0.8 | 16
O=C(O)C1CCCN(S(=O)(=O)Cc2ccccc2)C1 (stereo not given) | x | 8
COc1ccc(C2=NN(C(=O)c3ccc(C)cc3)CC2)cc1 | 2.3 | -24
C=CCNC(=O)c1cc(-c2ccccc2)on1 | 1.6 | -8
Clc1cccc(SCc2cccc3ccccc23)c1Cl | 2.3 | x
O=C(CCCCCN1C(=O)C2C3C=CC(C3)C2C1=O)Nc1nccs1 (stereo not given) | x | -22
CN(C)c1ccc(/C=N/c2nnc(NC(=O)c3ccccc3Br)s2)cc1 | x | -18
O=C(c1cccs1)C1CCCCC1 | -0.8 | x
O=C(Nc1nc2c(F)cccc2s1)c1cccs1 | x | -3
CCOC(=O)c1ccc(N2C(=O)CC(Sc3ccc(C)cc3)C2=O)cc1 (stereo not given) | -1.1 | x
CCOC(=O)c1ccc(NC(=O)/C(=C\c2ccco2)NC(=O)c2ccccc2Br)cc1 | 1.5 | -5
NCCC12CC3CC(C1)CC(CCN)(C3)C2 | x | 3
Cc1ccc(N2CC(C(=O)OCC(=O)C(C)(C)C)CC2=O)cc1 (stereo not given) | -2.3 | 2
CCOc1ccccc1NC(=O)C1CCCN(C(=O)Nc2ccccc2)C1 (stereo not given) | 0.2 | 0
C=CCN1C(=O)C2C(C1=O)C1C=CC2C12CC2 (stereo not given) | -2.2 | 2
CCOC(=O)C12CCC(C(N)=O)(CC1)CC2 | -2.5 | -3

Continuation.
SMILES | MgrA-DNA mod | S aureus helic
COc1ccc(/C=C2\SC(=Nc3ccccc3)NC2=O)c2ccccc12 | 2.5 | x
CC1(C)CN(c2cccc(C(=O)c3cn(-c4ccc(C(F)(F)F)cc4)nn3)c2)C1=O | 0.4 | x
CC1c2ccsc2CCN1C(=O)c1ccco1 (stereo not given) | -2.2 | x
CC12CCCCC1N(CCC(N)=O)c1ccccc12 (stereo not given) | 1.8 | -5
COc1ccc(O)c(CN2CCCCC2)c1 | -0.7 | -9
CC1(C)c2ssc(=S)c2-c2ccccc2N1C(=O)CSc1ncn[nH]1 | x | 8
O=C1CSC(c2ccccc2)N1c1ccccc1 (stereo not given) | x | 18
COc1ccc(NC(=O)Cn2cnnn2)c(OC)c1 | x | 4
